Hedgehog inh = Sonic Hedgehog pathway inhibition. Shh-LIGHT2 Gli-luciferase reporter, 30 h. inhibition, % (no concentration beside the values). 2.1% of 22,000 active;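 active = replicate mean of 65% or more; inconclusive = mean lower but half the replicates past it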;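 note: pathway switched on by Shh-conditioned medium diluted 1 in 25 in low serum; 100 nL library stock added to about 40 µL; 0% = median of neutral wells and 100% = positive control level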
PD-1 reverse act = activators reversing PD-1 mediated T-cell inhibition | activation, % (no concentration beside the values) | primary human CD4 T cells, PD-L1 beads, CellTiter-Glo 96 h | AID 2316 | 29,000 tested, under 10 active;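 active = replicate mean of 50% or more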;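 note: 0% = median vehicle wells and 100% = positive control; 100 nL library stock added to about 50 µL; numbers are from one replicate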
YB-1 expression = YB-1 expression inhibition; delta delta Cp (YB-1 minus CDIP) (no concentration beside the values); U2OS, qRT-PCR YB-1 vs CDIP delta delta Cp, 16 h; stronger effect = higher value; zero = DMSO, each unit about twofold; 0.37% of 30,000 active; AID 434959;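 active = delta delta Cp rounded down to an integer at or above 3, about 3 SD of DMSO wells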;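 note: higher means less YB-1 transcript or more CDIP transcript relative to DMSO; stock transfer was 100 nL into about 100 µL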
MITF inh = inhibitors of MITF | 0.28% of 37,000 active | AID 2240 | TRPM1 promoter luciferase, luminescence, 24 h | inhibition, % (no concentration beside the values);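 active = most replicates at 85% or more, or half of them and the mean; inconclusive = half reach 85% but not the mean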;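 note: human melanocyte line stably carrying TRPM1 promoter luciferase reporter; 0% = vehicle wells and 100% = a positive control; the first replicate is given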
Numbers without * were called inactive; u = inconclusive; x = not tested or not shown. Some of the compounds tested. The share of hits here may be higher or lower than overall.

SMILES	Hedgehog inh	PD-1 reverse act	YB-1 expression	MITF inh
C[C@@H]1CN([C@H](C)CO)C(=O)c2cc(NS(=O)(=O)c3ccccc3)ccc2O[C@H]1CN(C)C(=O)Nc1ccc(F)cc1	x	-0.3	-0.372	-6.0
Cc1ccc(S(=O)(=O)Nc2ccc3c(c2)CC(=O)N([C@H](C)CO)C[C@H](C)[C@H](CN(C)C(=O)Nc2ccc4c(c2)OCO4)O3)cc1	28.2	x	-0.0681	6.6
C[C@@H]1CCCCO[C@H](CN(C)C(=O)Nc2ccc(C(F)(F)F)cc2)[C@@H](C)CN([C@H](C)CO)C(=O)c2cc(NS(=O)(=O)c3ccc(Cl)cc3)ccc2O1	43.7	-4.3	-0.0724	48.9
C[C@@H]1CN([C@@H](C)CO)C(=O)c2cc(NC(=O)CCCN(C)C)ccc2O[C@H]1CN(C)Cc1ccc(Oc2ccccc2)cc1	-1.9	-0.4	0.0497	-6.7
CCOC(=O)c1nnn2c1nc(Sc1nc3ccccc3o1)c1ccccc12	-0.7	-5.2	-0.171	15.8
C[C@]12CCC3c4ccc(O)cc4CCC3C1CC[C@@H]2O (some centres undefined)	73.7*	x	0.369	7.8
CNc1cc(NC)c2ncnc3c2c1C(=O)c1ccccc1-3	x	0.0	-0.623	-15.4
Cc1noc(C)c1NC(=O)Nc1ccc2c(c1)C(=O)N([C@H](C)CO)C[C@H](C)[C@@H](CN(C)S(C)(=O)=O)OCCCC[C@@H](C)O2	x	0.1	-0.258	-0.5
C[C@@H]1CN([C@H](C)CO)C(=O)c2cc(NC(=O)CCC(F)(F)F)ccc2O[C@@H]1CN(C)C(=O)Nc1ccc(C(F)(F)F)cc1	x	-3.1	0.282	-6.9
COc1ccc(S(=O)(=O)N(C)C[C@@H]2Oc3c(NS(=O)(=O)c4cn(C)cn4)cccc3C(=O)N([C@@H](C)CO)C[C@@H]2C)cc1	-39.2	2.7	-0.08	6.0
C[C@@H]1CCCCO[C@@H](CN(C)Cc2ccccc2)[C@@H](C)CN([C@H](C)CO)C(=O)c2cc(NC(=O)Nc3cccc4ccccc34)ccc2O1	52.1	2.0	0.0532	-6.9
C[C@@H]1CN([C@H](C)CO)C(=O)c2cccc(NS(=O)(=O)c3cccs3)c2O[C@@H]1CN(C)S(=O)(=O)c1ccc(F)cc1	14.4	-1.0	-0.165	-5.0
COc1ccc(CN(C)C[C@H]2Oc3c(NS(=O)(=O)c4cccs4)cccc3C(=O)N([C@H](C)CO)C[C@@H]2C)cc1	-28.1	-1.3	0.137	-5.8
CC(=O)NC(=O)C1C=C2C=CC=CC2OC1=Nc1ccc(C(F)(F)F)cc1 (centres undefined)	-40.8	0.5	0.414	2.2
Cc1noc(C)c1NC(=O)N(C)C[C@H]1OCCCC[C@@H](C)Oc2ccc(NC(=O)Cc3ccccc3)cc2C(=O)N([C@H](C)CO)C[C@@H]1C	-3.5	x	0.0719	-19.6
O=C(COc1ccc(Br)cc1)Nc1cccc(-c2nc3cc(Cl)ccc3o2)c1	x	-1.8	x	-24.5
COc1ccc(NC(=O)Nc2ccc3c(c2)C(=O)N([C@H](C)CO)C[C@H](C)[C@H](CN(C)C(=O)Nc2ccc(OC)cc2)O3)cc1	5.3	-3.0	-0.268	-7.4
CC(Oc1ccc(Cl)cc1Cl)C(=O)Nc1ccc(Cl)c(-c2nc3ncccc3o2)c1 (centres undefined)	x	0.7	x	-2.9
O=[N+]([O-])c1cccc(COc2ccc(-c3cnc4ccccc4n3)cc2)c1	x	0.9	x	-2.0
COc1cc(OC)c2c(=O)c(O)c(-c3ccc(OC)c(OC)c3)oc2c1	43.2	x	-0.189	-13.3
COc1cccc2cc(-c3nnc(SCC(=O)N4c5ccccc5Sc5ccccc54)n3C)oc12	x	2.6	x	-3.6
c1ccc(-c2cnc3nonc3n2)cc1	82.4*	-5.0	0.134	79.8
COc1ccc(S(=O)(=O)Nc2cccc3c2O[C@H](CN(C)Cc2ccc(-c4ccccc4)cc2)[C@H](C)CN([C@H](C)CO)C3=O)cc1	32.9	-1.9	-0.0955	6.3
C[C@@H]1CN([C@H](C)CO)C(=O)c2cccc(NC(=O)c3ccc(-c4nccs4)cc3)c2O[C@@H]1CN(C)S(C)(=O)=O	-29.6	x	0.216	-6.0
C[C@H](CO)N1C[C@H](C)[C@H](CN(C)S(=O)(=O)c2cccs2)Oc2ccc(NC(=O)CCC(F)(F)F)cc2CC1=O	-14.4	0.2	-0.246	-1.9
CC(=O)c1cccc(NC(=O)C2CCCN(S(=O)(=O)c3ccc(Cl)cc3)C2)c1 (centres undefined)	x	-1.1	x	2.7
C[C@@H]1CN([C@H](C)CO)C(=O)c2cccc(NS(=O)(=O)c3cccs3)c2O[C@@H]1CN(C)Cc1ccc(Cl)c(Cl)c1	1.2	-1.3	0.0737	-19.0
COc1ccc(NC(=O)Nc2ccc3c(c2)C(=O)N([C@@H](C)CO)C[C@@H](C)[C@@H](CN(C)C)O3)cc1	x	1.3	0.0553	-5.4
Cc1noc(C)c1NC(=O)Nc1cccc2c1O[C@H](CN(C)S(=O)(=O)c1cn(C)cn1)[C@@H](C)CN([C@@H](C)CO)C2=O	-17.2	x	1.14	-3.7
Cc1ccc(S(=O)(=O)N(C)C[C@H]2Oc3ccc(NC(=O)CCCCCC(=O)Nc4ccccc4N)cc3C(=O)N([C@@H](C)CO)C[C@@H]2C)cc1	x	1.6	0.162	5.1
Cc1ccc(S(=O)(=O)Nc2ccc3c(c2)CC(=O)N([C@H](C)CO)C[C@@H](C)[C@H](CN(C)Cc2ccc(C(F)(F)F)cc2)O3)cc1	-27.1	-1.2	-0.103	-15.7
C[C@H]1CN([C@@H](C)CO)C(=O)c2cccc(NS(=O)(=O)c3cccs3)c2O[C@@H]1CN(C)S(=O)(=O)c1ccc(Cl)cc1	10.4	x	-0.158	-4.2
COc1c(C(C)C)oc2cc3oc(=O)ccc3cc12	-25.4	x	-0.258	10.3
Cc1noc(C)c1S(=O)(=O)N(C)C[C@H]1OCCCC[C@@H](C)Oc2ccc(NC(=O)NC(C)C)cc2C(=O)N([C@H](C)CO)C[C@@H]1C	17.1	-0.1	0.413	6.9
CCN(CC)C(=O)CSc1ncnc2sc(C)c(C)c12	x	0.2	x	-13.1
CC(C)S(=O)(=O)c1cscc1NC(=O)Nc1ccccc1	-3.9	-1.2	0.164	9.6
C[C@H](CO)N1C[C@H](C)[C@H](CN(C)S(=O)(=O)c2ccc(Cl)cc2)Oc2c(NC(=O)Nc3ccc4c(c3)OCO4)cccc2C1=O	109.7*	-0.4	-0.019	-12.8
C[C@H]1CN([C@@H](C)CO)C(=O)Cc2cc(NC(=O)Nc3ccc4c(c3)OCO4)ccc2O[C@H]1CN(C)Cc1ccccc1	8.5	-0.2	0.034	0.6
COc1ccc([C@@]2(O)c3c(ccc(/C=C/C4(C)CCC(C)(C)CO4)c3O)NC(=O)[C@@H]2OC)cc1 (some centres undefined)	-45.0	0.1	-0.00276	-7.6
N#Cc1ccsc1NC(=O)CSc1ncn[nH]1	x	1.6	x	-52.8

Given with values under each structure: part of the list above.
Value order: Hedgehog inh | PD-1 reverse act | YB-1 expression | MITF inh
> CC(=O)c1cccc(NC(=O)C2CCCN(S(=O)(=O)c3ccc(Cl)cc3)C2)c1 (centres undefined)
→ x | -1.1 | x | 2.7
> C[C@@H]1CN([C@H](C)CO)C(=O)c2cccc(NS(=O)(=O)c3cccs3)c2O[C@@H]1CN(C)Cc1ccc(Cl)c(Cl)c1
→ 1.2 | -1.3 | 0.0737 | -19.0

(continued)
SMILES	Hedgehog inh	PD-1 reverse act	YB-1 expression	MITF inh
CCN1C(=O)/C(=C2\C=Cc3ccccc3N2CC)SC1=S	-3.0	-0.4	-0.0603	12.7
C[C@H]1CN([C@@H](C)CO)C(=O)Cc2cc(NC(=O)CCCN(C)C)ccc2O[C@@H]1CN(C)Cc1ccc(-c2ccccc2)cc1	x	0.8	-1.08	-2.0
O=C(Cn1c(-c2ccccn2)nc2ccccc21)NCc1ccccc1	x	-0.5	x	-5.5
C[C@H](CO)N1C[C@H](C)[C@@H](CN(C)S(C)(=O)=O)Oc2ccc(NC(=O)Cn3cnnn3)cc2C1=O	-6.1	x	0.167	-6.7
COC(=O)c1ccccc1NC(=O)CSc1nnc(-c2ccccc2O)n1-c1ccccc1	x	0.3	x	32.7
C=CCc1ccccc1OCC(O)CNC(C)C (centres undefined)	4.3	x	0.4	1.5
O=c1oc2ccccc2cc1O	-37.0	x	-0.413	-2.6
C[C@@H]1CN([C@@H](C)CO)C(=O)Cc2cc(NC(=O)Nc3ccc4c(c3)OCO4)ccc2O[C@@H]1CN(C)Cc1ccc2c(c1)OCO2	6.0	-1.0	0.163	8.5
O=C1CC(c2ccc(O)cc2)Oc2cc(O)cc(O)c21 (centres undefined)	-71.0	x	-0.142	-101.1
COCCN=c1c([N+](=O)[O-])nn(-c2ccccc2)n1O	x	-1.3	x	-3.0
C[C@@H]1CN([C@@H](C)CO)C(=O)c2cc(NS(=O)(=O)c3ccc(Cl)cc3)ccc2O[C@@H]1CN(C)Cc1ccc(C(=O)O)cc1	-4.4	2.4	-0.33	1.5
C[C@@H]1CN([C@H](C)CO)C(=O)c2cccc(N(C)C)c2O[C@H]1CN(C)S(=O)(=O)c1ccc(Cl)cc1	-24.0	x	-0.0331	3.9
Cc1cc(C(=O)Nc2cccc3c2O[C@H](CN(C)C(=O)Nc2c(C)noc2C)[C@H](C)CN([C@H](C)CO)C3=O)n(C)n1	-4.1	2.6	-0.49	-14.7
Cc1c(NS(=O)(=O)c2cccc3nonc23)c(=O)n(-c2ccccc2)n1C	x	2.9	x	-3.9
COc1ccc(S(=O)(=O)Nc2ccc3c(c2)C(=O)N([C@H](C)CO)C[C@@H](C)[C@@H](CN(C)S(=O)(=O)c2cccs2)O3)cc1	-5.6	1.5	0.143	2.5
Cc1c(O)c(=O)n(-c2ccccc2)n1C	-33.9	x	-0.382	-1.2
C[C@H]1CN([C@@H](C)CO)C(=O)c2cc(NS(=O)(=O)c3cccs3)ccc2O[C@H]1CN(C)S(=O)(=O)c1ccc(F)cc1	x	0.8	-0.752	-16.4
Cc1noc(C)c1NC(=O)Nc1ccc2c(c1)CC(=O)N([C@@H](C)CO)C[C@H](C)[C@@H](CN(C)Cc1ccccc1)O2	5.1	-0.3	0.304	-5.1
Cc1noc(C)c1NC(=O)Nc1ccc2c(c1)C(=O)N([C@H](C)CO)C[C@H](C)[C@@H](CN(C)CC1CCCCC1)O2	-3.5	x	-0.0479	-2.0
C[C@@H]1O[C@@H](O[C@H]2[C@H](O[C@H]3CC[C@@]4(C)C(CC[C@]5(C)C4C=C[C@]46OC[C@@]7(CCC(C)(C)C[C@H]74)[C@@H](O)C[C@]65C)[C@]3(C)CO)O[C@H](CO)[C@@H](O)[C@@H]2O[C@@H]2O[C@H](CO)[C@@H](O[C@@H]3O[C@@H](C)[C@H](O)[C@@H](O)[C@H]3O)[C@H](O)[C@H]2O)[C@H](O)[C@H](O)[C@H]1O (some centres undefined)	103.6*	x	3.35*	x
C[C@H]1CN([C@@H](C)CO)C(=O)c2cccc(NC(=O)Nc3ccc(F)cc3)c2O[C@@H]1CN(C)S(C)(=O)=O	u	1.4	0.274	-12.1
CCOC(=O)N1CCc2c(sc3ncn(Cc4ccc(Cl)cc4)c(=O)c23)C1	95.1*	0.3	-0.202	39.7
C[C@H]1CN([C@@H](C)CO)C(=O)Cc2cc(NS(=O)(=O)c3ccccc3)ccc2O[C@@H]1CN(C)C(=O)Nc1ccccc1	-2.0	1.0	-0.285	-9.7
CC#CC#C/C=C1\C=CC2(OC=CC2OC(=O)C=C(C)C)O1 (centres undefined)	-21.8	x	0.538	x
C[C@H](CO)N1C[C@H](C)[C@H](CN(C)Cc2ccc(C(F)(F)F)cc2)Oc2ccc(NC(=O)Nc3ccc(F)cc3)cc2CC1=O	-14.4	-3.2	-0.173	17.5
C[C@@H]1CCCCO[C@@H](CN(C)C(=O)Nc2ccc(F)cc2)[C@@H](C)CN([C@H](C)CO)C(=O)c2cc(NS(=O)(=O)c3cccs3)ccc2O1	17.1	0.0	0.451	-8.4
C[C@@H]1CN([C@H](C)CO)C(=O)c2cccc(NS(=O)(=O)c3ccc(F)cc3)c2O[C@H]1CN(C)Cc1ccccc1	13.4	-1.9	-0.447	2.0
C[C@@H]1CN([C@@H](C)CO)C(=O)c2cc(NS(C)(=O)=O)ccc2O[C@@H]1CN(C)S(C)(=O)=O	-14.0	1.7	0.076	-5.6
COc1ccc(S(=O)(=O)Nc2ccc3c(c2)CC(=O)N([C@@H](C)CO)C[C@H](C)[C@H](CN(C)Cc2ccncc2)O3)cc1	7.6	3.1	0.101	-7.8
C[C@H]1CN([C@@H](C)CO)C(=O)c2cc(NC(=O)Nc3ccccc3)ccc2O[C@@H]1CN(C)Cc1ccc(Oc2ccccc2)cc1	-4.5	2.1	-0.395	11.8

Some entries already given, limited to YB-1 expression and PD-1 reverse act.
| canonical_smiles | YB-1 expression | PD-1 reverse act |
| --- | --- | --- |
| C[C@@H]1CN([C@@H](C)CO)C(=O)c2cc(NS(C)(=O)=O)ccc2O[C@@H]1CN(C)S(C)(=O)=O | 0.076 | 1.7 |
| COc1ccc(S(=O)(=O)Nc2ccc3c(c2)CC(=O)N([C@@H](C)CO)C[C@H](C)[C@H](CN(C)Cc2ccncc2)O3)cc1 | 0.101 | 3.1 |
| C[C@H]1CN([C@@H](C)CO)C(=O)c2cc(NC(=O)Nc3ccccc3)ccc2O[C@@H]1CN(C)Cc1ccc(Oc2ccccc2)cc1 | -0.395 | 2.1 |
